# From PubChem BioAssay
# Hedgehog: Hh protein inhibition, biochemical readout – plate reader, single concentration, primary screen (AID 588832); Biochemical plate reader assay, Hedgehog inhibition; active compounds read high; inhibition, % at 30.3 µM; 8,000 tested, under 10 active; in the data active means inhibition from about 57%;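 further: 0% = neutral control wells and 100% = positive control wells; cholesterol-driven self-cleavage of fly hedgehog protein by fluorescence polarization; read one hour after cholesterol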
# The depositor's hits bear a star. The list is partial; rates above refer to the full screens.
SMILES,Hedgehog
COC(=O)C1=CO[C@@H](OC2OC(CO)C(O)C(O)C2O)[C@@H]2[C@@H](C)[C@@H](O)C[C@H]12 (stereo not given in full),3.4
Nc1ncnc2nc[nH]c12,-1.7
O=C(O)/C=C/c1ccc(O)cc1,4.9
COc1c(O)cc2c(c1O)[C@@H]1O[C@H](CO)[C@@H](O)[C@H](O)C1OC2=O (stereo not given in full),3.4
COc1ccc(/C=C/C(=O)O)cc1,6.9
CCCCCCCCCCCC(=O)O,8.6
COc1ccc2ccc(=O)oc2c1,4.9
C=C1c2cccc(O)c2C(O)=C2C(=O)[C@]3(O)C(O)=C(C(N)=O)C(=O)[C@@H](N(C)C)[C@@H]3[C@@H](O)[C@H]12,37.9
CC(=O)Nc1ccc(O)cc1,7.0
CCCOC(=O)c1ccc(O)cc1,5.1
CC(O)CC(=O)O (stereo not given),9.8

# Ordered by molecular weight (largest number first): part of the list above.
SMILES,Hedgehog
COC(=O)C1=CO[C@@H](OC2OC(CO)C(O)C(O)C2O)[C@@H]2[C@@H](C)[C@@H](O)C[C@H]12 (stereo not given in full),3.4
COc1c(O)cc2c(c1O)[C@@H]1O[C@H](CO)[C@@H](O)[C@H](O)C1OC2=O (stereo not given in full),3.4
COc1ccc(/C=C/C(=O)O)cc1,6.9
O=C(O)/C=C/c1ccc(O)cc1,4.9
CC(=O)Nc1ccc(O)cc1,7.0
